HSD17B inh: qHTS Assay for Inhibitors of HSD17B4, hydroxysteroid (17-beta) dehydrogenase 4; 3-hydroxyacyl-CoA dehydrogenase type-2 (Homo sapiens), Q99714; recombinant HSD17B10, NADH fluorescence kinetic; many of its hits are not listed in these tables; Potency, µM (highest dose often 57.1 µM), for inactives: at the top dose activity change, negative = inhibition, hits mostly inhibitors; 7.6% of 75,000 active; active = well fitted inhibition curve with a large enough effect; inconclusive = small, poorly fitted or top-dose-only effect; inactive = no such curve, though single readings can be large or run the other way;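 also: the protocol describes HADH2 (HSD17B10) and not the HSD17B4 of the title; nearly all actives have a fitted effect of over 70% in size; most hits overshoot -100% by far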
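Activity followed as NADH fluorescence increase (ex 360, em 450 nm) every 30 seconds for 4 min, using final 90 uM beta-hydroxybutyryl CoA and 1 mM NAD+. Recombinant His-tagged enzyme, 20 nM, pH 9.0 Tris buffer, 15 min compound preincubation.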
An asterisk follows results filed as active; i = inactive; ? = inconclusive; & = joins results of further samples; [ ] = remark or other dose. % is scaled to controls: 0 for no effect and ±100 for the full control effect; potency is read from the fitted curve at half-maximal effect.

SMILES	HSD17B inh
C/C(=C\C1CCCCC1)C(NC(=O)c1ccc(C(F)(F)F)cc1)c1ccc(-c2ccccc2)cc1 (stereo unspecified)	-3.7%
O=C(CN1CCN(c2ncc(C(F)(F)F)cc2Cl)CC1)NC(=O)NCc1ccccc1	-1.1%
O=c1c(-c2cc(F)cc(F)c2)nc2cnc(N3CCOCC3)nc2n1C1CC1	i
O=c1c2[nH]c3ccccc3c2ncn1Cc1ccncc1	?
O=C(Nc1nnc(C2CCCC2)s1)C1CCC1	6.9%
COC(=O)c1ccccc1NC(=O)NCc1cccnc1	31.6µM*
COCCNC(=O)CN(c1ccc(C)cc1)S(=O)(=O)c1ccccc1	2.8%
c1ccc(Oc2cccc(CN3CCOCC3)c2)cc1	9.1%
Cc1noc(C)c1-c1nccc(-n2ccnc2)n1	2.1%
Oc1ccccc1Cn1c(-c2ccccc2O)nc2ccccc21	25.1µM*
Nc1cc(C(=O)O)[nH]c(=O)n1	-1.1%[11.4 µM]
O=C(Cc1cccs1)N(c1ccccc1)C1C=CS(=O)(=O)C1 (stereo unspecified)	-8.3%
CC1CN(Cc2nc3c(c(=O)n(C)c(=O)n3C)n2CCCO)CC(C)O1 (stereo unspecified)	11.6%
N#Cc1ccc(C23CC4(C2)[C@H](CN(Cc2ccc(C(F)(F)F)cc2)[C@@H]4c2ccccc2)C3c2ccc(C(F)(F)F)cc2)cc1 (stereo partly specified)	6.5%
Cc1cccc(C)c1NC(=O)C1(NC(=O)c2cnccn2)CCCCC1	11.9%
COc1cc(OC)cc(C(=O)N2CCN(C(=O)COc3ccc4ccccc4c3)CC2)c1	2.6%
NS(=O)(=O)c1ccc(NC(=O)COC(=O)CCNC(=O)NC23CC4CC(CC(C4)C2)C3)cc1	-5.9%
CCCCOC(=O)NCN1C(=O)C2C3C=CC(C3)C2C1=O (stereo unspecified)	3.4%
O=C(C1CC1)N(Cc1ccco1)c1nc(-c2ccccc2)cs1	-15.6%
CN=C1SC(CC(=O)Nc2cccc(Cl)c2Cl)C(=O)N1C (stereo unspecified)	0.7%

Looked up above:
Under HSD17B inh, Nc1cc(C(=O)O)[nH]c(=O)n1 is listed with -1.1%[11.4 µM]
Under HSD17B inh, NS(=O)(=O)c1ccc(NC(=O)COC(=O)CCNC(=O)NC23CC4CC(CC(C4)C2)C3)cc1 is listed with -5.9%
Under HSD17B inh, Cc1noc(C)c1-c1nccc(-n2ccnc2)n1 is listed with 2.1%
Under HSD17B inh, N#Cc1ccc(C23CC4(C2)[C@H](CN(Cc2ccc(C(F)(F)F)cc2)[C@@H]4c2ccccc2)C3c2ccc(C(F)(F)F)cc2)cc1 (stereo partly specified) is listed with 6.5%
Under HSD17B inh, COCCNC(=O)CN(c1ccc(C)cc1)S(=O)(=O)c1ccccc1 is listed with 2.8%
Under HSD17B inh, COC(=O)c1ccccc1NC(=O)NCc1cccnc1 is listed with 31.6µM*

(list continues)
SMILES	HSD17B inh
O=C(Nc1ccc(N2CCCCC2)c(Cl)c1)c1ncn[nH]1	-0.2%
COc1cc(OC)cc(C(=O)N2CCN(C(=O)c3cccc(F)c3)CC2)c1	4.2%
COc1ccc(NC(=O)CSc2nccn2-c2ccccc2)cc1	-2.4%
Cn1ncc2c(Nc3cccc(Cl)c3)nc(Nc3cccc(Cl)c3)nc21	?
COc1ccc2c(CC(=O)N3CCN(S(=O)(=O)c4cccs4)CC3)coc2c1	?
CC(C)(C)c1n[nH]c(=S)n(N)c1=O	-3.3%
O=C(NCc1ccccc1)c1cccc(OCC(=O)N2CCN(C(=O)c3ccco3)CC2)c1	-7.9%
COCCNc1nc(C)nc2c1nc(-c1ccccc1)n2CCN1CCCC1	25.1µM*
Cn1c(=O)c(-c2ccc(Cl)cc2)nc2cnc(Oc3cccc(Cl)c3)nc21	-12.1%
CCOC(=O)Cn1c(=O)oc2cc(S(=O)(=O)NCc3cccs3)ccc21	6.2%
CCCOc1ccc(N2C(=O)CC(NCc3ccncc3)C2=O)cc1 (stereo unspecified)	-0.1%
CC(C)OC(=O)CSc1nnnn1-c1ccc2c(c1)OCCO2	-4.5%
Cc1cc(C)n(-c2nc3ccccc3nc2Nc2ccc3c(c2)OCO3)n1	-1.5%
O=C(O)CNCC1COc2ccccc2O1 (stereo unspecified)	7.7%
O=C(CCNS(=O)(=O)c1cccs1)N1CCCCCC1	10.5%
Cc1ccc(CCN2CC(C(=O)NCc3cccnc3)CC2=O)cc1 (stereo unspecified)	1.1%
C[C@H]1COC(=O)[C@H](Cc2ccccc2)NC(=O)[C@@H](C)COC(=O)[C@H](Cc2ccccc2)NC1=O	6.7%[11.4 µM]
COc1ccc(N2CCN(C(=O)CN=C3NS(=O)(=O)C(c4ccc(C)cc4)=C3C)CC2)cc1	6.1%
CC(C(=O)N1c2ccc(F)cc2CCC1C)N1C(=O)c2ccccc2C1=O (stereo unspecified)	12.2%
COc1ccc(C(=O)Nc2ccc(S(=O)(=O)Nc3onc(C)c3C)cc2)cc1	-13.6%
CC(=O)Nc1ccccc1C(=O)N1CC2(C)CC1CC(C)(C)C2 (stereo unspecified)	-22.6%
CCOC(=O)Cn1c(=O)oc2cc(S(=O)(=O)NCCc3ccc(OCC)c(OCC)c3)ccc21	-2.9%
O=C(C[C@@H](C(=O)O)N1CCOCC1)c1ccccc1	-7.6%[11.4 µM]
O=C(CNC(=O)c1ccco1)OCc1ccc(Cl)cc1	29.9%
N=C(N)SCCN1CCCCC1	7.3%[11.4 µM]
Cc1nc2sc(C(c3cccs3)N3CCC(C(N)=O)CC3)c(O)n2n1 (stereo unspecified)	6.2%
COc1ccc(CNc2ncncc2-c2cccnc2)c(OC)c1	-2.6%
CCN1C(=O)CC(Sc2ccccc2N)C1=O (stereo unspecified)	-10.6%
CNc1ccnc(-c2ccccc2C(F)(F)F)n1	-1.5%
CC(NC(=O)CC1Nc2ccccc2NC1=O)c1ccccc1 (stereo unspecified)	?
CCOC(=O)N1CCN(CC(O)c2ccc3cc[nH]c3c2)CC1 (stereo unspecified)	5.0%
CCCN1Cc2cccc(C(=O)Nc3ccc4c(c3)OCCO4)c2C1=O	-13.0%
O=C(O)c1cc2c(cc1S(=O)(=O)O)[C@H]1[C@@H]([C@H]3[C@H]2[C@@]2(Cl)C(Cl)=C(Cl)[C@]3(Cl)C2(Cl)Cl)[C@]2(Cl)C(Cl)=C(Cl)[C@@]1(Cl)C2(Cl)Cl	0.316µM*
CC1CCCCC1NC(=O)CSc1nnc(CN2CCOCC2)n1C (stereo unspecified)	15.9%
COC(=O)c1c(C(=O)OC)c2cc(C)ccn2c1Cl	?
c1ccc(-c2oc3ncnc(N4CCOCC4)c3c2-c2ccccc2)cc1	10µM*
CCCOc1ccccc1C1CC(=O)Nc2cc3c(cc21)OCCO3 (stereo unspecified)	-18.2%
COc1ccc2cc(S(=O)(=O)N3CCCCC3)ccc2c1S(=O)(=O)N1CCCCC1	-6.0%
CCNc1ccccc1	3.9%
COCCOC(=O)C1=C(C)N=C2SCCC(=O)N2C1/C=C/c1ccccc1 (stereo unspecified)	-1.3%
C=CCn1c2ccccc2c2nnc(SCN3C(=O)c4ccccc4C3=O)nc21	-23.0%
CN(C)CCCN1C(=O)C(=O)/C(=C(/O)c2ccncc2)C1c1cccnc1 (stereo unspecified)	-0.3%
COc1ccccc1-n1c(SCC(N)=O)nnc1-c1ccc(S(=O)(=O)N2CCCCC2)cc1	?
CCn1cc(C(=O)NCCCN2CC(C)CC(C)C2)c(=O)c2cc(S(=O)(=O)N(C)C)ccc21 (stereo unspecified)	2.8%
CCOc1ccc(NC(=O)CCN2CCN(c3ccccc3OC)CC2)cc1	-0.9%
O=c1c2c(nc3n1CCCCC3)sc1c(O)cccc12	-1.5%
CCC#CCOCC(=O)Nc1ccccc1	-0.5%
O=C(c1cc(-c2ccco2)on1)N1CCc2ccccc2C1	15.8µM*
C=C(C)[C@H]1CC=C(C)C(=O)C1	-9.7%
O=C(O)c1ncn(Cc2ccccc2)c1C(=O)O	-1.2%
Nc1nc(CC(=O)O)cs1	4.2%
O=C(NC[C@H]1CCCCN1)c1cc(OCC(F)(F)F)ccc1OCC(F)(F)F	-3.9%&-2.4%
OCCNCc1ccc(OC2CCCC2)cc1	4.9%
O=C(C1CCCN(S(=O)(=O)c2ccc(F)cc2)C1)N(Cc1cccs1)C1CC1 (stereo unspecified)	-0.6%
O=C(O)c1cc(S(=O)(=O)N2CCCCC2)ccc1F	-3.8%
CCCCn1c(SCC(=O)N2CCN(c3ccccc3)CC2)nc2ccsc2c1=O	?
O=C(CN1CCOc2ccccc21)NC1CC1	3.2%
CC(=O)c1cccc(NC(=O)NCc2cccs2)c1	7.4%
CCOC(=O)C1=C(CC)Nc2ccccc2N=C1NC(=O)c1cccc(S(=O)(=O)N2CCCC2)c1	-10.6%
N#Cc1nc(-c2cccs2)oc1N1CCOCC1	12.6µM*

Some of these compounds in order of molar mass, rising:
SMILES	HSD17B inh
C=C(C)[C@H]1CC=C(C)C(=O)C1	-9.7%
OCCNCc1ccc(OC2CCCC2)cc1	4.9%
N#Cc1nc(-c2cccs2)oc1N1CCOCC1	12.6µM*

(listing goes on)
SMILES	HSD17B inh
Cn1c(=O)c2c(nc(NC3CCCCC3)n2CC(O)COc2ccccc2)n(C)c1=O (stereo unspecified)	-3.4%
COc1ccccc1NC(=O)CSc1nc(N)cc(N)n1	-8.0%
CCOC(=O)CSC1=C(C#N)C(c2sccc2C)CC(=O)N1 (stereo unspecified)	14.8%
O=C(Nc1cccc2c1CCCC2)c1ccc(Br)o1	-1.4%
Cc1nc2ncnn2c(C)c1CCC(=O)NC(C)c1ccc2c(c1)OCCO2 (stereo unspecified)	110.3%[activator]
CC(C)COc1ccc(C(=O)OC2CC(C)(C)OCC2CN(C)C)cc1 (stereo unspecified)	-8.0%
CSCC[C@H](NC(=O)OC(C)(C)C)c1nnc(SCC=C(C)C)o1	4.1%
COc1ccc(C(C)NC(=O)c2ccoc2C)cc1OC (stereo unspecified)	8.7%
COc1ccc(CCNC(=O)CSc2nncn2N)cc1OC	8.5%
Cc1ccc(C(=O)C(NC(=O)c2ccco2)N2CCOCC2)cc1 (stereo unspecified)	-12.9%
COCCn1nnnc1CN1CCC(NC(=O)Nc2cccc(OC)c2)CC1	2.1%
COC(=O)C1=C(C)NC(C)=C(C(=O)OC)C1c1ccc(OC(=O)c2ccco2)cc1	?
Cc1cc(CC(C)C)n(-c2nc3ccccc3c(=O)n2OCC(=O)N(C)C)n1	4.0%
Cc1nc2ncnn2c(C)c1CCC(=O)N1CCc2ccccc2C1	-4.4%
CC(=O)c1c(N)c(C#N)c(C)n1-c1ccc(Br)cc1	-1.2%
CC1CCCCN1C(=O)C12CCC(C)(C(=O)C1)C2(C)C (stereo unspecified)	0.6%
O=c1oc2ccccc2cc1-c1cn2cccnc2n1	25.1µM*
CCN(CC)CCCNC(=O)c1cc(-c2ccc(Cl)cc2)on1	-0.5%
CC(=O)Nc1ccc(-c2cn3cccnc3n2)cc1	10µM*
CCOC(=O)N1CCN(S(=O)(=O)c2cccc3nonc23)CC1	9.6%
COc1ccc(CCn2nnnc2C(c2ccc(Cl)cc2)N2CCN(C)CC2)cc1OC (stereo unspecified)	7.6%
CCc1[nH]c(C)c(C(C)=O)c1C	0.4%
Cc1cccc(OCC(=O)N2CCN(C(=O)Cc3ccccc3)CC2)c1	-1.1%
C[C@@H]1CCC[C@H](C)N1NC(=O)c1ccc(Cl)c(S(N)(=O)=O)c1	?
O=C(COc1ccc2ccccc2c1Br)N1CCOCC1	2.3%
COc1ccc(CCNC(=O)c2ccc(CNc3c(N4CCOCC4)c(=O)c3=O)cc2)cc1OC	0.9%
CN1CCN(CCCNC(=O)CCCOc2cc(=O)n(C)c3ccccc23)CC1	-7.0%
CN(C)S(=O)(=O)Nc1ccc(C(=O)O)cc1	4.1%
CC1CCCC(C)N1C(=O)CSc1nnnn1Cc1ccccc1 (stereo unspecified)	10.4%
C=CCSc1nnc2c(n1)OC(c1cccnc1)Nc1ccccc1-2 (stereo unspecified)	-10.1%
CC(NC(=O)C(C)(C)C)c1nc2ccccc2n1C (stereo unspecified)	-4.8%
Cc1ccccc1NS(=O)(=O)c1ccc(OCC(=O)N2CCCC2)cc1	31.6µM*
CCCCOCCCn1cnc2c([nH]c3cc(OC)ccc32)c1=O	-9.2%
CC(=O)N1CCc2c(sc(NC(=O)C3CC3)c2-c2nc3ccccc3s2)C1	14.8%
COc1ccc(C(=O)Nc2ccc(C)cn2)c(OC)c1	1.5%
c1ccc2c(c1)CCN2CCN1CCc2ccccc21	-6.0%
Cc1cccc(C)c1OCC(=O)NCc1nnc(SCC(=O)NC2CCCCC2C)n1C (stereo unspecified)	8.2%
Cc1c(NC(=O)CCC2CCCCC2)c(=O)n(-c2ccccc2)n1C	9.9%
COc1ccc(C(=O)NCc2nnc(SCC(=O)NCc3ccc(F)cc3)o2)cc1	0.1%
Cc1cccc(OCC(=O)NCc2ccncc2)c1C	0.2%
O=C(C1CCCCC1)N(Cc1ccccc1)c1ccccn1	4.4%
Cc1cccc(NC(=O)c2cc(NC(=O)C3CCCCC3C(=O)O)ccc2Cl)n1 (stereo unspecified)	2.1%
CCOC(=O)C(C(C)=O)C(c1ccc(OC)cc1)C(C(C)=O)C(=O)OCC (stereo unspecified)	0.3%
COc1ccc(C(=O)Cn2c(N3CCOCC3)nc3ccccc32)cc1OC	4.9%
Nc1nonc1C(=O)NCCNC(=O)c1cccs1	1.9%
CCOC(=O)N1CCC(NC(=O)Cn2nc(-c3ccccc3)ccc2=O)CC1	-1.5%
O=C(CCCSc1nc(-c2ccco2)cc(C(F)(F)F)n1)Nc1ccc2c(c1)OCO2	6.7%

Source: PubChem BioAssay

These rows are one share of the data; count on the stated rates, not on these rows.
